Screens from PubChem BioAssay.
TRPV1 PAM – potentiators of human vanilloid receptor 1 (TRPV1) | Q8NER1 | TRPV1-expressing cells, Fluo-8 calcium influx, capsaicin EC20 potentiation; host cell line not named in the record; control for the full effect not named in the record | potentiation, % at 8.33 µM | 0.02% of 320,000 active | AID 540277; active means potentiation above 80%; inconclusive means 30% to 80%; inactive means below 30%; further: 0% is about no effect
Target sequence (Q8NER1 whole entry, looked up): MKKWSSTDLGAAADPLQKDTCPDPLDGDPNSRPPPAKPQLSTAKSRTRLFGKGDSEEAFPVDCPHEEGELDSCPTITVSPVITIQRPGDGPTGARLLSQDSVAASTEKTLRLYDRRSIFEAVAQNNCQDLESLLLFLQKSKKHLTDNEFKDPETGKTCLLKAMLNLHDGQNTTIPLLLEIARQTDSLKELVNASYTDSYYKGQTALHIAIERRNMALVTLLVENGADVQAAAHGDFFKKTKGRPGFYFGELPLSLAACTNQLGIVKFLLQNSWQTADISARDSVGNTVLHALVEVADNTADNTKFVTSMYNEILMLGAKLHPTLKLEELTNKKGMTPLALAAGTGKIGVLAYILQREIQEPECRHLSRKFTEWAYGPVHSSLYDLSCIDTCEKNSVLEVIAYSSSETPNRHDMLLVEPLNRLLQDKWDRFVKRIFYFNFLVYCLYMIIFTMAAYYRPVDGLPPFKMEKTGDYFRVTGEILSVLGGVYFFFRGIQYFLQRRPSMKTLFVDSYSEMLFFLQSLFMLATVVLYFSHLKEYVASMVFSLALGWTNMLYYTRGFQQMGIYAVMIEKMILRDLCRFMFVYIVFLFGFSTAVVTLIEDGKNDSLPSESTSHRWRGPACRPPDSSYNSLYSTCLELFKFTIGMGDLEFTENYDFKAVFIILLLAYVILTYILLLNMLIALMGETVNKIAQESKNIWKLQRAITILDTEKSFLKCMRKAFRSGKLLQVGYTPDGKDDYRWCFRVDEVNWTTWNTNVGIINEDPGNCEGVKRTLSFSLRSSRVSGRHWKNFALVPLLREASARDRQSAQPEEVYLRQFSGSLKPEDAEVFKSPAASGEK
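Fluo-8 calcium influx in TRPV1-expressing cells, kinetic read (ex 480/em 520 nm). Compound added and read 3 min for agonist activity, followed by capsaicin at EC20 final and 2 min further read for enhancement.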
ClpP mod – qHTS Assay for Activators of ClpP; ATP-dependent Clp protease proteolytic subunit (Bacillus subtilis (strain 168)), P80244; purified B. subtilis ClpP, FRET peptide cleavage, 20 min; Potency, µM (titrated, usually from 57.5 µM), for inactives: at the highest dose activity change, negative = active; 1.9% of 340,000 active; active = well fitted falling curve with a large enough effect; inconclusive = small, poorly fitted or top-dose-only effect; inactive = no such curve, though single readings can be large or run the other way; further: potency means the concentration at half of the fitted maximal effect; the source files actives as falling curves though it sought activators and does not explain the sign; nearly all actives have a fitted effect of over 65% in size; many hits overshoot -100%
Target sequence (P80244 whole entry, looked up): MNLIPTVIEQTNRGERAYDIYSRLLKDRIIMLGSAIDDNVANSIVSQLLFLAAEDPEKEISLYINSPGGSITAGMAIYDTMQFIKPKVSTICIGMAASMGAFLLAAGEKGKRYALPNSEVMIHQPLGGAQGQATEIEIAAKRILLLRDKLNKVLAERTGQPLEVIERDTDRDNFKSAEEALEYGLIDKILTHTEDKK
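Purified B. subtilis ClpP, 10 microg/mL final in Tris/HCl pH8 with KCl, BSA, glycerol and Tween-20, cleaved an Abz/nitrotyrosine-quenched decapeptide. Fluorescence (ex 320, em 430) was read at 0 and 20 min at room temperature. Delta was normalized to 5.8 microM ADEP and DMSO/no-enzyme controls.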
TRPML1 inh – blocks the human TRPML1 channel | TRPML1-inducible cells, Ca2+ dye fluorescence, FDSS; hits give low values; inhibition of EC80 agonist-evoked calcium signal | activity change, negative = inhibition, % (concentration not given with the values) | 0.02% of 390,000 active | AID 624415; in the data active means activity change below about -50%; inconclusive means about -30% to -50%; inactive means above about -30%;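 further: stimulus is agonist 54-4 at its EC80 concentration; on the % scale 0 is the no-effect control and ±100 the full control effect; compound concentration not given in the record; the text of the record puts the active cut at -80%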
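Calcium fluorescence in TRPML1-DL cells induced overnight with Tet: a 110 s read after compound pin addition, then a 110 s antagonist read after challenge with 54-4 at 4 uM final (EC80).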
PINK1 expr mod – PINK1 expression modulation. 0.2% of 410,000 active. PINK1 immunofluorescence, high-content cytometry, 24 h. Potency, µM (doses to about 76.6 µM), without a hit: at the highest dose activation (PINK1 increase), actives largely listed as activators; active = well fitted activation curve with a large enough effect; inconclusive = small, poorly fitted or top-dose-only effect; inactive = flat fitted curve, though single readings scatter; cell line not stated here;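 further: potency means the concentration at half of the fitted maximal effect; % of control where 0% means no effect; nearly all actives have a fitted effect of over 65% in size; a mitochondrial uncoupler was the plate control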
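Measures PINK1 amount and localization on or inside mitochondria by immunofluorescence. Stable cells get compounds at 5 concentrations for 24 hours before fixation and staining; CCCP controls included.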
Sfp inh – inhibitors of Bacillus subtilis Sfp phosphopantetheinyl transferase. Biochemical Sfp PPTase activity, qHTS. Potency, µM, inactives show max response, negative = inhibition, hits mostly inhibitors. Q9F4F7. AID 1490. 3.5% of 310,000 active; active means well fitted inhibition curve with a large enough effect; inconclusive means small, poorly fitted or top-dose-only effect, or another doubt; inactive means no such curve, though single readings can be large or run the other way;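 further: the enzyme is Sfp with the accession as filed and its product quenches rhodamine fluorescence; potency means the concentration at half of the fitted maximal effect; 0% = enzyme reaction without inhibitor and -100% = no enzyme wells; top concentration of the series not given in the record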
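After 15 min at room temperature with compound, 15 nM Sfp received 5 uM rhodamine-CoA plus 12.5 uM BHQ-2-ybbR (50 mM Hepes pH 7.6, 10 mM MgCl2). Rate came from the fluorescence difference over 30 min, ex 525/em 598 nm.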
TRPML1 agonist – activates the human TRPML1 channel; Q9GZU1; TRPML1-expressing cells, Ca2+ dye fluorescence, FDSS; host cell line not named in the record; reference of the full effect not given here; activation, % (test concentration not listed); 0.12% of 410,000 active; AID 624414; in the data active = activation above about 50%; inconclusive = about 30% to 50%; inactive = below about 30%; further: 0% is about no effect; the text of the record puts the active cut at 80%
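TRPML1-DL cells, Tet-induced overnight (~16 h, 37 degrees C), loaded 45-90 min at room temperature with Ca8 no-wash calcium dye plus quencher. FDSS fluorescence: 10 s baseline, compound pin-transfer, 110 s agonist read, then EC80 54-4 (4uM final) and 110 s antagonist read.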
Menin MLL FP FL – inhibitors of human menin-MLL interaction, wild-type MLL peptide | Fluorescence polarization, fluorescein-MLL peptide displacement from menin | FP activity change, % at 61.4 µM | 290,000 tested, under 10 active | AID 1766; inconclusive = falling polarisation curve, or a change in total fluorescence; inactive = total fluorescence flat and polarisation flat or rising; no compound was filed as active; the % refers to the polarisation; negative = inhibition;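 further: % of control where 0% means no effect; inhibitors lower the polarisation; unlabelled MLL peptide was the positive control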
Active calls of the source: *; ? = inconclusive; . = not tested or not shown; & = joins results of further samples.

Below each compound – TRPV1 PAM, ClpP mod, TRPML1 inh, PINK1 expr mod, Sfp inh, TRPML1 agonist, Menin MLL FP FL
#1 CC1(C(=O)Nc2ccc3c(c2)OCCO3)CCN1Cc1ccc(-c2ccccn2)cc1 (stereo not given)
    ., 0.9%, ., 2.2%, ., -0.9, .
#2 CC(C)[C@H](NC(=O)c1ccccc1F)C(=O)Nc1nc2c(s1)CCCC2
    7.5, ., 17.3, 8.9%, 0.9%, 0.0, 8.3
#3 CCc1ccc(C(O)c2ncc(-c3ccc(C(F)(F)F)cc3)[nH]2)cc1 (stereo not given)
    ., -14.4%, ., 7.4%, ., 0.4, .
#4 N#Cc1c(N)nc2c(c1-c1ccncc1)CCCCCC2
    ., -21.6%, 26.4, -1.9%, ., -1.0, .
#5 Cc1ccc(S(=O)(=O)N2CCOCC2)cc1C(=O)OCC(=O)N1c2ccccc2NC(=O)C1(C)C
    -13.6, ., ., ., 17.9%, ., 5.1
#6 CCCNc1ccc(-c2nc(-c3ccccn3)no2)cc1[N+](=O)[O-]
    ., 1.3%, 29.3, 25.7%, ., -0.5, .
#7 Cc1nc2c(cc1C(=O)N/N=C/c1ccc([N+](=O)[O-])cc1)c(=O)n(C)c(=O)n2C
    -1.8, -3.3%, -25.3, 1.4%, 24.4%, -0.4, -4.4
#8 CCOCCCNC(=O)c1[nH]c(C)c(C(C)=O)c1C
    7.1, -4.5%, -1.1, -0.7%, 2.6%, 0.6, 2.7
#9 CN(C(=O)c1ccc(NC(=O)Cc2ccc(NC(=O)C3CCCN(C(=O)C4CCC4)C3)cc2)cc1)C1CCCC1 (stereo not given)
    ., 1.0%, -0.7, 4.1%, ., -0.2, .
#10 CN(C)CCN(Cc1ccco1)S(=O)(=O)c1ccc(-c2ccc(=O)[nH]n2)s1
    9.8, -8.5%, 12.6, -0.8%, 14.1%, -0.3, -2.0
#11 Cc1cc(C)n(-c2c(C)[nH]c3ccccc23)n1
    9.7, ., -11.7, -0.3%, -2.8%, 0.1, 0.0
#12 Cc1ccc(OCC(=O)NC(=S)Nc2cccc(NC(=O)c3ccc(Cl)cc3Cl)c2)cc1
    -2.5, -2.2%, 3.5, 5.3%, 3.8%, 0.7, 1.6
#13 CCOc1cc(CNCc2ccncc2)cc(Br)c1OCc1ccccc1F
    10.3, 0.3%, 21.6, -0.3%, -50.4%, 0.1, 3.1
#14 COc1cccc(CNC(C)C(=O)Nc2ccc(S(=O)(=O)N3CCCC3)cc2)c1 (stereo not given)
    ., -1.8%, 6.5, 4.0%, ., 0.5, .
#15 CCc1c(C)c2ccc(O)c(CN3CCN(c4ccccc4)CC3)c2oc1=O
    ., 4.3%, 19.4, 0.0%, ., 0.2, .
#16 COCc1cccc(-c2csc(C(C)(NC(C)=O)c3ccccc3)n2)c1 (stereo not given)
    ., -6.3%, ., 1.1%, ., -1.1, .
#17 COc1ccc(-c2cccc(C(=O)N3CCOCC3)c2)cc1
    1.5, -0.2%, -2.2, -0.3%, 11.4%, -1.2, -1.0
#18 Nc1nnc(CC(=O)N/N=C/c2ccccc2OCc2ccc(F)cc2)s1
    ?, ., -7.0, 2.2%, -12.0%, 1.1, 0.9
#19 O=C(Cc1c(C(=O)O)[nH]c2ccccc12)NCCN1CCN(c2ccccc2F)CC1
    3.2, -14.2%, 18.9, 0.0%, 2.7%, -0.3, 7.6
#20 CCCNC(=O)OC[C@H]1O[C@H](CCO/N=C/[C@@H](OC)[C@H](C)/C=C/CC(=O)OC)C=C[C@@H]1Oc1ccc(OC)cc1
    -10.9, ., ., ., 14.5%, ., 3.1
#21 COc1ccc(C(=O)NC(=S)Nc2cccc3cc(O)ccc23)cc1OC
    -8.6, 10.6%, 36.9, 0.7%, ?, 0.9, .
#22 COC(=O)[C@H](C)[C@H](CC(C)C)NC(=O)[C@H](C)[C@H](CC(C)C)NC(=O)c1ccccn1
    ., ., 4.4, ., 15.6%, 1.7, -2.3
#23 COc1ccccc1NC(=O)Nc1nn(C)c2cccc(N(C)C)c12
    -9.6, 1.2%, -11.7, -2.8%, -9.5%, 1.6, -0.6
#24 N#Cc1c2c(c(NCc3cccnc3)n3c1nc1ccccc13)CCC2
    -1.4, 31.6µM*, 35.9, -4.0%, 11.9%, 2.0, 2.8
#25 O=C1CCCC/C1=C/Nc1cccc(C(F)(F)F)c1
    -26.6, -0.9%, 1.3, 1.4%, -29.3%, 4.0, 1.3
#26 COCCn1c(-c2ccccc2)nc2c(c(=O)c3ccccc3n2C)c1=O
    -8.5, ., ., ., -23.7%, ., 2.3
#27 Cc1cc(NC(=O)C2CC(=O)OC2c2ccccc2)no1 (stereo not given)
    -13.7, -1.0%, 3.9, ?, 8.9%, -0.5, -1.8
#28 CCCN(CC(=O)Nc1ccc(F)c(F)c1F)C(=O)C1=COCCO1
    14.5, ., 33.8, -0.8%, ., -0.9, .
#29 COc1ccc(C2NC(=O)NC(C)=C2C(=O)OCc2ccccc2)cc1 (stereo not given)
    0.0, ., -8.1, 4.7%, 2.6%, 0.3, -0.6
#30 O=C(c1cc(-c2ccc(O)cc2)on1)N1CCN(c2ccccc2)CC1
    -3.7, -1.6%&-3.2%, 15.4&7.5, 6.5%&4.6%, -1.8%, 0.5&-0.9, 2.1
#31 COc1ccc(OC)c(/C=N/NC(=O)CCN2CCN(C(c3ccccc3)c3ccccc3)CC2)c1
    4.2, 28.2µM*, -10.2, 0.4%, -16.9%, 3.5, 3.2
#32 O=C(NCC1CCCO1)C1CC(=O)N(c2ccc(Cl)cc2)C1 (stereo not given)
    -3.7, ., 13.4, 5.0%, 10.7%, 0.0, 0.3
#33 Cc1nn(Cc2ccccc2)c2ncccc12
    5.8, -5.9%, -1.8, 0.3%, 13.8%, -0.8, 2.7
#34 COc1ccc(C)cc1NC(C)C(=O)c1c[nH]c2ccccc12 (stereo not given)
    ., 1.5%, ., -0.8%, ., -1.0, .
#35 COc1ccc(-c2nc(C#N)c(N3CCN(c4ccccc4)CC3)o2)cc1
    -0.5, 4.6%, 44.7, 5.5%, -24.6%, 0.3, 0.6
#36 NNC(=O)CCS(=O)(=O)c1ccc2ccccc2c1
    27.8, -3.8%, 16.3, 0.5%, -3.7%, 0.6, -0.9
#37 C=CCCCCCCCCCCCc1ccco1
    ., ., ., 3.1%, ?, ., 4.6
#38 Cc1cc(C)n(C(=O)CNc2cccc(Cl)c2C)n1
    1.1, 2.1%, 3.2, 0.6%, 12.3%, 2.6, 2.4
#39 Cc1cc(C)c(S(=O)(=O)N2CCN(C(=O)CCn3nc(C)c(C)c3C)CC2)c(C)c1
    5.1, ., 4.2, 0.6%, 14.7%, 0.8, -4.5
#40 CCc1cccc(NC(=O)CC2Oc3ccc(C)cc3NC2=O)c1 (stereo not given)
    ., -4.4%, -23.8, -0.8%, ., -0.5, .
#41 CCC1CCCCN1C(=S)Nc1ccc(C(C)=O)cc1 (stereo not given)
    -2.7, -1.0%, 13.9, 1.2%, -2.6%, 1.6, 5.9
#42 Cc1cc(NC(=O)CCN2CC(C)OC(C)C2)ccc1Br (stereo not given)
    1.4, -1.3%, -7.6, 0.1%, -11.7%, -0.3, 3.5
#43 Cc1ccc(Nc2nc(N)nc(CN3CCN(Cc4ccc5c(c4)OCO5)CC3)n2)c(C)c1
    3.4, 0.6%, 0.7, -0.6%, 13.5%, 1.2, -0.2
#44 Cc1ccc(Nc2ccc(S(=O)(=O)N3CCOCC3)cc2[N+](=O)[O-])cc1C
    -3.4, 1.8%, 2.8, 2.1%, 4.8%, 3.0, 1.6
#45 O=C(COC(=O)CCC(=O)c1cccs1)NCc1ccccc1
    -4.0, ., 12.4, 0.1%, 8.2%, -0.3, -2.7
#46 CCOc1ccc(S(=O)(=O)N2CCN(c3ccccc3F)CC2)c2cccnc12
    5.8, -4.4%, 14.2, 1.5%, -10.7%, 5.4, 5.4
#47 CC1CCCCC1NC(=O)c1cc(Cl)nc2ccccc12 (stereo not given)
    ., -4.7%, -5.1, 11.4%, ., 0.2, .
#48 CCN(CC)S(=O)(=O)c1ccc(Cl)c(NC(=O)COc2ccc(OC)cc2[N+](=O)[O-])c1
    -2.7, 1.3%, 27.5, 4.4%, 13.6%, 0.3, 5.3
#49 Cc1ccc(C2(C)NC(=O)N(CC(=O)N(c3ccccc3)C3CCS(=O)(=O)C3)C2=O)cc1 (stereo not given)
    ., ., -4.5, -0.7%, ., 0.5, .
#50 CS(=O)(=O)N1CCC(Oc2ccccc2C(=O)N2CCN(CC3CC3)CC2)CC1
    0.3, ., 8.7, 0.5%, 18.7%, -0.1, 0.9
#51 COc1ccc(C2C(C(=O)Nc3ccc(OC)c(OC)c3)c3ccccc3C(=O)N2C)cc1 (stereo not given)
    6.4, ., 6.7, 13.0%, 11.8%, 0.2, 0.5
#52 COc1ccc(CNC(=O)CCC2N=C3c4ccccc4N=C(SCC(=O)NCC4CCCO4)N3C2=O)cc1 (stereo not given)
    19.4, 3.0%, 0.0, 7.3%, 12.7%, 0.0, -9.5
#53 CCN(CC)S(=O)(=O)c1nnc(NC(=O)c2ccccc2Cl)s1
    ., ?, -3.0, 1.8%, ., -0.4, .
#54 CC(=O)Nc1c(Nc2ccccc2)c2ccccc2oc1=O
    -3.1, ., -2.1, -2.4%, 4.4%, 0.6, 1.0
#55 Cc1nc2cnc(N3CCN(C)CC3)nc2n(C[C@H]2CCCO2)c1=O
    ., ., ., 0.7%, 28.1%, ., -0.1
#56 CCOc1ccc(CNC(=O)C2CCCN(c3nc4c(C)cc(C)cc4s3)C2)cc1 (stereo not given)
    ., 0.3%, 14.0, 1.7%, ., -0.6, .
#57 O=C(Cc1ccccc1)Nc1ccc(C(=O)NCc2ccccc2)cc1
    ?, -14.6%, 8.3, 20.0%, 9.5%, -0.2, 0.1
#58 CCCCCC(=O)N1C[C@H](O)[C@@H](n2cc(COC(=O)c3ccccc3)nn2)C[C@@H]1c1ccccc1
    ., 1.7%, -11.9, -1.0%, ., 0.8, .
